# Mtb growth = M. tuberculosis H37Rv growth inhibitors, H37Rv strain (AID 1626) | M. tuberculosis H37Rv growth inhibition; higher % means a stronger effect | inhibition, % at 10 µM; hits with a dose series show IC50 in µM | 0.95% of 220,000 active;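 active means confirmed in a dose series; inconclusive means inhibition above 80% but not taken into the dose series; inactive means below 80% or under 30% at every dose of the series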;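 further: bacteria incubated seven days before Alamar blue readout; 0% = bacteria only wells and 100% = bacteria with antibiotic wells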
# YopH PTP inh = YopH tyrosine phosphatase inhibitors, primary screen, biochemical, fluorescence Ex485/Em525 | YopH tyrosine phosphatase [Yersinia enterocolitica] | inhibition, %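 (about 10 µM by stock and volumes)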 | 0.16% of 140,000 active | AID 898, 2007;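 active means inhibition of 50% or more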;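 further: controls were vehicle for no effect and minimum signal wells for full effect; inactives centre near -20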
# Mtb betalactam = beta-lactam sensitization of Mtb H37Rv, H37Rv; M. tuberculosis H37Rv growth with meropenem, percent inhibition; hits of this screen are not shown here; inhibition, % at 25 µM; 0.27% of 330,000 active;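 active means about 74% or more and at least 40 points above the plate without the antibiotic, then above 30% in a dose series; inconclusive means first-round hits that could not be retested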;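 further: growth measured after seven days incubation then overnight dye step; 0% = bacteria only wells and 100% = bacteria with antibiotic; twin plates without the antibiotic show which effects depend on it; some results filed as inactive read as strong as hits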
# Arbovirus anti = antivirals against arbovirus infection, primary screen, cell-based, full library, 10K replicate subset. arbovirus infection cell-based antiviral screen. 0.37% of 200,000 active. inhibition, % at 10 µM;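 active means inhibition from about 30%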;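 further: bluetongue infection of BSR cells; cell survival read as ATP light after 72 h; 0% = infected wells without compound and 100% = uninfected wells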
# RecA intein inh = Mtb RecA intein splicing inhibitors, primary screen, biochemical, fluorescence, HTS | cell-free RecA intein splicing | inhibition, %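 (about 9 µM by stock and volumes)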 | 0.75% of 290,000 active; in the data active means inhibition above about 30%; inconclusive means no clear call, values can overlap the other calls;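 further: 0% = vehicle wells and 100% = reference inhibitor control wells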
# Target sequence (P9WHJ3 whole entry, looked up): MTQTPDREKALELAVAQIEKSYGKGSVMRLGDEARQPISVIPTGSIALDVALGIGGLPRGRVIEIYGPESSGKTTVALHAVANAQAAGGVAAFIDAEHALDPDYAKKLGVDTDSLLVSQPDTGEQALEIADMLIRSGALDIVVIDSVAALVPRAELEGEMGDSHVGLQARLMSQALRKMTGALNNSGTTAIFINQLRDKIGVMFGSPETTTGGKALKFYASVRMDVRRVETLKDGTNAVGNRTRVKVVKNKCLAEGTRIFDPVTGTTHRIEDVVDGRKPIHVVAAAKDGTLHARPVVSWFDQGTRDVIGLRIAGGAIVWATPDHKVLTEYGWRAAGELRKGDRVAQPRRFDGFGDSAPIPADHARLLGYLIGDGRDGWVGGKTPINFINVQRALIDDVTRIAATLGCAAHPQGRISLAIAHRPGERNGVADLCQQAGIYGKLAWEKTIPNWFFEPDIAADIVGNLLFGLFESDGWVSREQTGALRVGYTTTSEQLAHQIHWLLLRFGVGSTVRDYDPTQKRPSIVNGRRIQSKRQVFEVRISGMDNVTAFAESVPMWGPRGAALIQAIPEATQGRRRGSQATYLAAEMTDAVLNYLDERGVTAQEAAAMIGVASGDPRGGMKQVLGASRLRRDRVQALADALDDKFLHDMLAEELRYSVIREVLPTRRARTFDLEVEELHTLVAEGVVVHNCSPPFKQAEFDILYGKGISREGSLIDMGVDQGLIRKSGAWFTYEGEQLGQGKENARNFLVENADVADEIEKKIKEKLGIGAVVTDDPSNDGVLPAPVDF
# * = called active by the depositor; u = inconclusive; x = not tested or not shown. This is a subset (hit frequency here may not be typical).
SMILES,Mtb growth,YopH PTP inh,Mtb betalactam,Arbovirus anti,RecA intein inh
CC(CCc1ccccc1)NCC#N (stereo not drawn),2%,x,-11,x,0.0
Cc1cc2c(c(=O)o1)C(CC(C)C)C(C#N)=C(N)O2 (stereo not drawn),-3%,-32,-11,0,-1.3
CNC(CC(C)C)C(=O)NC1C(=O)NC(CC(N)=O)C(=O)NC2C(=O)NC3C(=O)NC(C(=O)NC(C(=O)O)c4cc(O)cc(O)c4-c4cc3ccc4O)C(O)c3ccc(c(Cl)c3)Oc3cc2cc(c3OC2OC(CO)C(O)C(O)C2OC2CC(C)(N)C(O)C(C)O2)Oc2ccc(cc2Cl)C1O (stereo not drawn),u,x,96,x,-4.1
CS(=O)(=O)N(CC(=O)Nc1ccc2c(c1)OCCO2)Cc1ccccc1,-4%,-19,-13,4,2.0
O=C1c2ccccc2C(=O)N1Cc1nc2ccccc2c(=O)n1CCCN1CCOCC1,-5%,-25,3,5,1.4
c1ccc(N2CCN(c3nc(-c4ccccn4)nc4ccccc34)CC2)cc1,0.92µM*,-29,97,-12,9.2
CCCCC(=O)NC(=S)Nc1c(C)cc(Br)cc1C,5%,-15,4,6,1.0
Cc1ccc(C)c(N(C(=O)Cn2nnc3ccccc32)C(C(=O)NC(C)(C)C)c2ccsc2)c1 (stereo not drawn),2%,-32,-5,-5,-2.0
CC(C)CN(CC(C)C)C(=O)COc1ccccc1C(N)=O,0%,x,-5,2,x
Cc1cc(C)c(NC(=O)Cn2c(=O)c3cccn3c3ccccc32)c(C)c1,x,x,-3,x,-2.1
COc1ccccc1OCCSc1nnc(CNC(=O)c2ccco2)n1C,x,x,-7,x,5.2
CCCCN(C(=O)c1cccc(-n2cccc2)c1)c1c(N)n(Cc2ccccc2)c(=O)[nH]c1=O,x,x,-16,x,-1.0
COc1ccc(Cl)cc1NC(=O)CCN1CCOCC1,-2%,x,-6,x,-1.9
CC1(C)CC(=O)CC(=O)/C1=N\Nc1c(Cl)cc(Cl)cc1Cl,-7%,-23,13,1,0.7
CCCCn1c(N)c(N(CCOC)C(=O)COC(=O)COc2ccc(CC)cc2)c(=O)[nH]c1=O,x,x,1,x,1.0
CCCNC(=O)Nc1cc(S(=O)(=O)CC)ccc1O,-6%,x,3,x,1.4
c1ccc2cc(-c3cc4ccccn4c3)ccc2c1,-8%,-48,6,5,2.1
CCOC(=O)C1CCN(Cc2cnc(Oc3ccc(OC)cc3)s2)CC1,6%,3,1,3,0.6
Cc1cc(CNC(=O)CC2C(=O)NCCN2Cc2ccccc2C(F)(F)F)nn1C (stereo not drawn),0%,x,-5,9,-1.4
O=C(COC(=O)c1nc(Cl)ccc1Cl)NCc1cccs1,x,x,-4,x,-4.1
COc1ccccc1-c1cc(C(F)(F)F)nc(S(C)(=O)=O)n1,x,-3,1,-46,50*
c1ccc(C[C@H]2CNCCN2CCCCC2CCCCC2)cc1,x,x,92,x,5.0
CCC(C)(C)NC(=O)CN(Cc1cccs1)C(=O)CNS(=O)(=O)c1ccc(C)cc1,-12%,-18,-25,4,5.3
Cc1oc(-c2cccs2)nc1CN1CCN(C(C)C)C(CCO)C1 (stereo not drawn),-2%,x,1,0,-0.7
O=C(Cn1cccc1)N1CCc2ccccc21,-8%,4,-6,-3,-1.1
C/C(=N\Nc1ccc(C#N)cc1[N+](=O)[O-])c1ccc(C)o1,4%,x,-1,x,x
O=c1cc(O)c(-c2cccc(Cl)c2)c(Cl)[nH]1,-1%,-29,-2,0,-4.2
O=C(C1=C(O)C(=O)N(CCN2CCOCC2)C1c1ccc(Br)cc1)c1cc2ccccc2o1 (stereo not drawn),x,x,-5,x,1.7
CNC(=S)Nc1cc(C(F)(F)F)ccc1Cl,8%,-14,-2,-3,-4.7
Cn1c(=NC(=O)CSCC(=O)N2CCOCC2)sc2ccccc21,-2%,-9,1,10,0.8

# An excerpt from the list above, for reference:
SMILES,Mtb growth,YopH PTP inh,Mtb betalactam,Arbovirus anti,RecA intein inh
c1ccc2cc(-c3cc4ccccn4c3)ccc2c1,-8%,-48,6,5,2.1
CCOC(=O)C1CCN(Cc2cnc(Oc3ccc(OC)cc3)s2)CC1,6%,3,1,3,0.6

# (listing goes on)
SMILES,Mtb growth,YopH PTP inh,Mtb betalactam,Arbovirus anti,RecA intein inh
CCN1CCN(S(=O)(=O)c2ccc(C(=O)Nc3ccccc3)cc2)CC1,x,x,u,x,0.7
CC(C)CCOCC(=O)Oc1ccccc1C(=O)O,-14%,-42,-4,4,-0.6
NNc1nc(-c2ccccc2)cc(-c2ccccc2)n1,-6%,x,1,-30,4.2
CCOc1ccc(Nc2nnc(Cc3ccc(OC)cc3)c(=O)[nH]2)cc1,-4%,x,-11,0,-4.9
O=Cc1sc([O-])nc1-[n+]1ccc2ccccc2c1,-5%,x,2,x,-5.4
O=S1(=O)CCN(Cc2ccc(Cl)c(C(F)(F)F)c2)CC1,2%,x,5,13,-1.0
COc1ccc(/C(N)=N/OC(=O)CSc2ccc(C)cc2)cc1,3%,-12,4,4,x
COc1ccccc1NC(=O)c1cnc2c(-c3ccccc3)c(C)nn2c1C,-3%,x,0,-6,2.5
CC(C)Cn1c(CCCNC(=O)c2ccc(F)cc2)nc2ccccc21,2%,-38,2,1,1.8
CC(=O)c1cccc(NC(=O)C2CC(=O)N(c3cccc(C)c3C)C2)c1 (stereo not drawn),0%,-33,-11,7,-1.6
Cc1ccc(CNC(=O)c2nnc(CS(=O)(=O)c3ccccc3)o2)cc1,x,x,-12,x,0.3
Cn1ccnc1C(O)(c1ccccc1)c1nccn1C,13%,x,2,x,-4.5
COc1ccc(CCNC(=O)CCOc2ccc(C)cc2)cc1OC,x,x,0,x,0.4
COc1cccc(NC(=O)CC2C(=O)NCCN2C(=S)Nc2ccc(F)cc2)c1 (stereo not drawn),11%,x,-12,12,1.5
CCC(CC)c1nnc(NC(=O)c2ccc(N3CCCCC3)c([N+](=O)[O-])c2)s1,8%,-27,x,10,2.7
CC(C)CCNC(=O)CSc1nc2ccccc2c(=O)[nH]1,u,-23,100,-11,-5.1
Cc1c(OCC(=O)N(C)C)ccc2c3c(c(=O)oc12)CCCCC3,-6%,x,3,3,-1.5
CCOc1ccccc1-c1nc(SCC(=O)O)n[nH]1,-3%,-2,3,8,1.0
C(=N\Nc1nc(-c2ccccc2)cs1)/c1cccs1,-6%,-24,49,35*,0.9
COc1ccc(O)c(C2=Nc3ccccc3N=C(c3ccco3)C2)c1,6%,-20,9,1,7.5
CCn1c(C)c(C)c2cc(C(=O)Nc3cccc(Cl)c3)ccc21,32%,-17,94,2,3.4
CC(NC(=O)C1CCCCC1)c1ccc2c(c1)OCCO2 (stereo not drawn),-11%,-10,2,3,-6.0
COc1ccc(Cc2noc(CN3CCNC(=O)CC3)n2)cc1OC,1%,x,-2,0,-1.0
COc1ccc(CCNS(=O)(=O)c2cccs2)cc1,15%,-25,2,13,x
Cc1ccc(S(=O)(=O)CCC(=O)NCc2ccccc2)cc1,6%,1,3,9,0.0
O=C(CC1C(=O)NCCN1C(=O)c1ccc(F)cc1)OCc1ccccc1 (stereo not drawn),-1%,6,3,1,7.7
CCOc1ccccc1NC(=O)COC(=O)c1cccc(-c2ccc(OC(C)=O)cc2)c1,14%,-9,55,16,0.8
COc1ccc(CNC(=O)CN2CCC(C(=O)c3ccc(OC)cc3)CC2)cc1,-2%,-40,43,-5,-3.6
CC1CN(C(=S)SCCN2Cc3ccccc3C2=O)CC(C)O1 (stereo not drawn),1%,-14,11,8,0.0
Cc1cc2c(=O)n(C)c(SCC(=O)Nc3cccc(F)c3)nc2s1,x,x,7,x,1.3
CC(=C1C(=O)c2ccccc2C1=O)N1CCN(c2ccccn2)CC1,-11%,31,-6,1,x
CS(=O)(=O)Nc1ccc(C(=O)NCCSC2CCCCC2)cc1,-14%,-10,-7,-5,-1.2
COC(=O)Cc1ccc(NC(=S)NC(C)(C)C)cc1,u,x,45,4,1.4
Cc1nn(-c2cccc(Cl)c2)c(Cl)c1/C=N/NC(=O)c1cccnc1,5%,-15,7,10,-2.4
O=C1CC(c2cccc(Cl)c2)CC(O)=C1C=NCCCO (stereo not drawn),3%,11,5,13,1.1
CCCCSc1ncc(C(=O)OCC)c(N)n1,13%,-21,65,-7,-1.1
COc1ccc(C(=O)c2cc3c(cc2[N+](=O)[O-])OCCO3)cc1,-2%,x,-3,5,-43
COc1ccc(C(=O)NC(C)c2nnc(SCC(=O)Nc3nc(C)cs3)n2C)cc1 (stereo not drawn),-3%,-49,-6,8,x
O=C(N/N=C/c1cccs1)c1ccc2ncccc2c1,4%,x,40,-4,-1.7
Cc1ccc(CNS(=O)(=O)c2ccc(-n3cnnn3)c(C)c2)cc1,x,x,5,x,0.3
c1ccc2sc(NC3=NCN(CCN4CCOCC4)CN3)nc2c1,-2%,x,-2,8,-1.4
CC1=CC(C)(C)N2C(=O)C3(C(C#N)=C(N)Oc4cc(O)ccc43)c3c(C)c(C)cc1c32 (stereo not drawn),65%,-17,93,-29,20
Fc1ccc(N/N=C(/c2ccccc2)c2ccccn2)cc1,44%,7,13,-2,9.3
Cc1cc(C#Cc2c(-c3ccccc3)n(C)c3ccccc23)ccc1F,x,x,-2,x,3.6
CCc1ccc(N2C(=O)c3sc4nnc(-c5ccccc5)c(=O)n4c3C2=O)cc1,0%,-14,77,-2,6.7
Cc1ccc(S(=O)(=O)N2CCOCC2)cc1C(=O)NC(=S)N1CC(C)OC(C)C1 (stereo not drawn),-4%,x,2,x,-0.6
CCCCC1CCC(C(=O)Nc2ccccc2)CC1 (stereo not drawn),-2%,-12,7,4,0.1
Cc1nc2c3ccccc3n(Cc3ccccc3F)c2s1,12%,-13,44,-6,15
COc1cccc(CNC(=O)C2CCCN2S(=O)(=O)c2ccc3c(c2)C(C)(C)C(=O)N3C)c1 (stereo not drawn),x,x,2,x,2.4
O=C(O)C1CC=CCC1C(=O)NNc1ccccc1 (stereo not drawn),77%,x,-4,-28,-5.3
CC(=O)O[C@H]1[C@H](C)OC=C[C@@H]1OC(C)=O,x,x,-3,x,0.5
CCc1nnc(NC(=O)C2CC(=O)N(CCc3ccccc3)C2)s1 (stereo not drawn),-14%,-20,-1,8,x
C(=N\C(/N=C/c1ccco1)c1ccco1)/c1ccco1,0%,-29,2,-2,3.9
Cc1cc(NC(=O)CN2C(=O)CC(c3ccco3)Sc3ccccc32)no1 (stereo not drawn),3%,-34,-2,6,-4.3
O=c1[nH]c2cc3c(cc2cc1CN(CCO)S(=O)(=O)c1ccccc1Cl)OCCO3,-12%,0,2,-5,-2.2
CC1CCN(S(=O)(=O)c2ccc(S(=O)(=O)NCC(=O)C(C)(C)C)cc2)CC1,-6%,-18,-2,-2,-2.0
Cc1ccc(C(=O)Nc2ccc(NC(=O)c3cccs3)cc2)c(C)c1,x,x,0,x,4.9
COc1cc(C(=O)Nc2ccccc2NC(=O)c2cc(OC)c(OC)c(OC)c2)cc(OC)c1OC,x,x,-3,x,0.0
CCCn1c(=O)[nH]c(=O)c2c1nc(-c1cccs1)n2CCOC,-2%,x,9,-1,0.5
CCC(CC)=C(C#N)C(=O)NC1CCCCC1,-1%,-27,2,3,0.1
COc1cc(C=C(c2nc3ccccc3s2)c2nc3ccccc3s2)cc(OC)c1O,7%,-16,2,-5,25
CN(C)CCNc1ncnc2sc(-c3ccccc3)cc12,x,x,-2,x,-1.3
O=C(/C=C/c1cccc(Cl)c1)NCc1cccs1,0%,-19,9,0,-7.0

# Among those listed so far, these have fluorine:
SMILES,Mtb growth,YopH PTP inh,Mtb betalactam,Arbovirus anti,RecA intein inh
Cc1cc(CNC(=O)CC2C(=O)NCCN2Cc2ccccc2C(F)(F)F)nn1C (stereo not drawn),0%,x,-5,9,-1.4
COc1ccccc1-c1cc(C(F)(F)F)nc(S(C)(=O)=O)n1,x,-3,1,-46,50*
CNC(=S)Nc1cc(C(F)(F)F)ccc1Cl,8%,-14,-2,-3,-4.7
O=S1(=O)CCN(Cc2ccc(Cl)c(C(F)(F)F)c2)CC1,2%,x,5,13,-1.0
CC(C)Cn1c(CCCNC(=O)c2ccc(F)cc2)nc2ccccc21,2%,-38,2,1,1.8
COc1cccc(NC(=O)CC2C(=O)NCCN2C(=S)Nc2ccc(F)cc2)c1 (stereo not drawn),11%,x,-12,12,1.5
O=C(CC1C(=O)NCCN1C(=O)c1ccc(F)cc1)OCc1ccccc1 (stereo not drawn),-1%,6,3,1,7.7
Cc1cc2c(=O)n(C)c(SCC(=O)Nc3cccc(F)c3)nc2s1,x,x,7,x,1.3
Fc1ccc(N/N=C(/c2ccccc2)c2ccccn2)cc1,44%,7,13,-2,9.3
Cc1cc(C#Cc2c(-c3ccccc3)n(C)c3ccccc23)ccc1F,x,x,-2,x,3.6
Cc1nc2c3ccccc3n(Cc3ccccc3F)c2s1,12%,-13,44,-6,15

# Screening data: PubChem BioAssay, several laboratories
